Assay outcomes: PubChem BioAssay, National Center for Advancing Translational Sciences (NCATS)
Vif-A3G inh = qHTS for Inhibitors of Vif-A3G Interactions: qHTS. DNA dC->dU-editing enzyme APOBEC-3G (Homo sapiens), Q9HC16. HeLa A3G-eYFP + Vif (tagged APOBEC3G with the HIV-1 protein that degrades it), YFP fluorescence, overnight. Potency, µM (series often up to 46.1 µM), inactives show top-dose activity, negative = active, hits mostly inhibitors. hit rate 0.076% among 410,000. AID 602310, 2012;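 note: potency is the fitted concentration of half-maximal effect; % is set by controls: 0 for no effect and ±100 for the full control effect; nearly all actives have a fitted effect of over 60% in size; hits raise eYFP signal because A3G escapes Vif-driven loss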
Target sequence (Q9HC16 whole entry, looked up): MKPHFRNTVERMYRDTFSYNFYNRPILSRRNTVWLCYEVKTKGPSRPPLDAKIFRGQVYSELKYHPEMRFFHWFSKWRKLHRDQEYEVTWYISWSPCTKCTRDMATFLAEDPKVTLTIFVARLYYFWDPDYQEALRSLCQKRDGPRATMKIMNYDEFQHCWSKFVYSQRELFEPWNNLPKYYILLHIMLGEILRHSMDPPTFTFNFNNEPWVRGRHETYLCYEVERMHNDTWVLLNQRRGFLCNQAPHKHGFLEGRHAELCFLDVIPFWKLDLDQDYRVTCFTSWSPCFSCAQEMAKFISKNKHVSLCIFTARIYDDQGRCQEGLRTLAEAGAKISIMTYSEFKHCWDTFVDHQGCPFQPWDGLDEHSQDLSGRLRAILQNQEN
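Read-out is eYFP fluorescence (Ex 488/Em 500-530) from Vif-expressing HeLa A3G-eYFP cells; more signal means A3G escaped Vif-mediated degradation. Cells plated overnight, compound pinned in, incubated overnight at 37 deg C.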
mIDH1 inhibitor = qHTS for Inhibitors of mutant isocitrate dehydrogenase 1 (IDH1): qHTS; AID 602179, 2012; Isocitrate dehydrogenase [NADP] cytoplasmic (Homo sapiens), O75874; hit rate 0.093% among 390,000; IDH1-R132H enzyme, NADPH consumption, diaphorase/resazurin fluorescence; Potency, µM (titrated, usually from 76.6 µM), inactives show at the top dose activity change, negative = inhibition, actives largely listed as inhibitors; note: potency is the fitted concentration of half-maximal effect; % is set by controls: 0 for no effect and ±100 for the full control effect; nearly all actives have a fitted effect of over 65% in size
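IDH1-R132H (0.5 ug/mL) preincubated 30 min with compound, then NADPH (0.016 mM) and alpha-KG (2 mM) added; 80 min at RT, pH 7.5. Remaining NADPH coupled via diaphorase/resazurin to fluorescence (540/590 nm); concentration-response curves normalized to no-enzyme control.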
rTrxR1 inhibitor = qHTS Assay for Inhibitors of Mammalian Selenoprotein Thioredoxin Reductase 1 (TrxR1): qHTS. hit rate 1% among 390,000. recombinant rTrxR1, NADPH fluorescence consumption, selenite substrate. Potency, µM (doses to about 114 µM), for inactives: at the top dose activity change, negative = inhibition, actives largely listed as inhibitors. AID 588453, 2011; note: potency is the fitted concentration of half-maximal effect; % is set by controls: 0 for no effect and ±100 for the full control effect; nearly all actives have a fitted effect of over 65% in size
Target sequence (O89049 whole entry, looked up): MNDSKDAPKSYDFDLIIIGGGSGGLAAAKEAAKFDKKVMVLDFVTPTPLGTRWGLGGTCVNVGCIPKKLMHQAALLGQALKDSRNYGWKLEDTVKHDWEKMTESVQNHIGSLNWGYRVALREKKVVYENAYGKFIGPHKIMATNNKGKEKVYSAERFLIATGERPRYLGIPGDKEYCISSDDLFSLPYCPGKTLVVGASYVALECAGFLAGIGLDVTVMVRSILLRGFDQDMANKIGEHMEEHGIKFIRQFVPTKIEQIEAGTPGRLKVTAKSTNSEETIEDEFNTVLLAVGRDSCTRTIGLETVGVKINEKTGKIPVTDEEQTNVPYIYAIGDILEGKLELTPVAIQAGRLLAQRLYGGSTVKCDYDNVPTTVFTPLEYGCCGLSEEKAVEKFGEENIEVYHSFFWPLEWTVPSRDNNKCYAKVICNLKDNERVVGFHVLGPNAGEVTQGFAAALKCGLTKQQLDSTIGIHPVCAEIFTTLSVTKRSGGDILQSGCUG
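Rat TrxR1 (90 nM in the dispensed reagent) was pre-reduced with 400 uM NADPH for 5 min at room temperature, then incubated with compound for 15 min. After 400 uM selenite was added, NADPH fluorescence (Ex 340/Em 450 nm) was followed for 8 min.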
LDHA inh = qHTS assay for inhibitors of human lactate dehydrogenase | L-lactate dehydrogenase A chain (Homo sapiens), P00338 | purified LDHA, NADH/diaphorase-resazurin fluorescence; hits give low values | activity change, % (values are at about 110 or 230 µM) | hit rate 0.15% among 480,000 | AID 1347041, 2019; in the data active = activity change below about -30%; inconclusive = mostly about -25% to -30%;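 note: plate controls were DMSO wells for no effect and wells without enzyme for full effect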
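Human LDH5 at 2 nM final in Tris HCl pH 7.4 with 0.06 mM NADH and 0.2 mM pyruvate, reacted 5 minutes at room temperature. Remaining NADH coupled via diaphorase/resazurin; resorufin fluorescence read at 0 and 20 minutes, normalized to enzyme-free and DMSO wells.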
TrxR1 substrate = qHTS Assay for Substrates of Mammalian Selenoprotein Thioredoxin Reductase 1 (TrxR1): qHTS. purified TrxR1 substrate turnover, NADPH consumption readout. Potency, µM (titrated, usually from 114 µM), for the others: at the top dose activity change, negative = substrate turnover. Thioredoxin reductase 1, cytoplasmic (Rattus norvegicus), O89049. AID 588456, 2011. hit rate 0.01% among 390,000; note: potency is the fitted concentration of half-maximal effect; % is set by controls: 0 for no effect and ±100 for the full control effect; nearly all actives have a fitted effect of over 50% in size
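Rat TrxR1, dispensed at 90 nM, was prereduced with 400 uM NADPH (final) for 5 min at ~22 deg C, then incubated with compound 15 min before 400 uM selenite. A first-read NADPH fluorescence drop versus no-compound background flagged substrates.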
Vif-APOBEC3F blk = qHTS for Inhibitors of Vif-A3F Interactions: qHTS | HeLa A3F-eYFP + Vif (tagged APOBEC3F with the HIV-1 protein that degrades it), YFP fluorescence increase | Potency, µM (top dose mostly 46.1 µM), for the others: at the top dose activity, negative = active | hit rate 0.2% among 390,000; note: potency is the fitted concentration of half-maximal effect; % of control where 0% means no effect; nearly all actives have a fitted effect of over 65% in size
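HeLa cells stably expressing Vif plus C-terminally eYFP-tagged A3F were seeded, incubated overnight at 37 deg C, dosed with compound, incubated overnight again at 37 deg C. Yellow fluorescence (Ex 488/Em 500-530) reported blocked Vif-mediated A3F-eYFP degradation.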
RGS4 inhibitor = Inhibitors of Regulator of G Protein Signaling (RGS) 4: qHTS | hit rate 0.039% among 390,000 | Regulator of G-protein signaling 4 (Homo sapiens), P49798 | Potency, µM (top dose mostly 114 µM), for inactives: at the highest dose activity change, negative = inhibition, most hits filed as inhibitors | Transcreener GDP fluorescence polarization, RGS4-accelerated GTP hydrolysis; note: potency is the fitted concentration of half-maximal effect; % is set by controls: 0 for no effect and ±100 for the full control effect; nearly all actives have a fitted effect of over 75% in size; some results filed as inactive show a strong effect at the top dose
Target sequence (P49798 whole entry, looked up): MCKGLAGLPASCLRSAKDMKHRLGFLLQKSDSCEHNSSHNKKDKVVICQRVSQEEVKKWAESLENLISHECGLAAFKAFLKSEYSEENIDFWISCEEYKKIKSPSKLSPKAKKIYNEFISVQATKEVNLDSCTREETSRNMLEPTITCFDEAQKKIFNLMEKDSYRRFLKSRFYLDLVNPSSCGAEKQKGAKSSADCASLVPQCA
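MLSMR compounds (23 nl, pin-transferred) preincubated 10 min at room temperature with a 500nM (2x) first reagent, then RGS4 at 900nM (2x) plus Transcreener GDP mix added; fluorescence polarization (620/688 nm) read before and after 90 min at 30 °C.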
GRP78 ERSR act = qHTS for Inducers of the Endoplasmic Reticulum Stress Response (ERSR) in Human Glioma: qHTS; U87-MG GRP78 promoter luciferase reporter, 16 h; Potency, µM, for the others: at the top dose activation, hits mostly activators; hit rate 0.02% among 420,000; AID 602332, 2012; note: potency is the fitted concentration of half-maximal effect; series mostly up to about 76 µM; % of control where 0% means no effect; nearly all actives have a fitted effect of over 35% in size
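ERSR induction read as luciferase luminescence (Bright-Glo, 10 min at room temperature) in stably transfected human U87-MG glioma cells exposed to compounds for 16 h, using GRP78 as sensor.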
Starred values were filed as active, the others as inactive; u = inconclusive; x = no result given; [ ] = remark or other dose. Unless noted, calls come from the whole dose curve; as a rule, active = well fitted curve in the direction sought with a large enough effect; inconclusive = small, poorly fitted or top-dose-only effect, or another doubt; inactive = no such curve, though single readings can be large; an effect the other way counts as inactive or inconclusive. This is a subset (hit frequency here may not be typical).

Every second line gives: Vif-A3G inh, mIDH1 inhibitor, rTrxR1 inhibitor, LDHA inh, TrxR1 substrate, Vif-APOBEC3F blk, RGS4 inhibitor, GRP78 ERSR act
O=C(NCc1ccco1)c1nc2nc(-c3cccs3)cc(C(F)(F)F)n2n1
 : 4%, 1%, 20%, 0, 399%[activator], -2%, 11%[56.9 µM], -3%
COc1cccc(/C=C2/Sc3ccc(C(=O)NCCN4CCCC4)cc3NC2=O)c1
 : u, 2%, 19%, -8, 0%, 2%, 2%, -7%
CC1CCN(S(=O)(=O)c2ccc3c(ccc(=O)n3CC(=O)NCc3ccccc3)c2)CC1
 : 0%, 6%, 21%[57.1 µM], 6, 7%[57.1 µM], 2%, -9%, -2%
CCc1nn2c(-c3ccco3)ccnc2c1-c1ccc(F)cc1
 : 2%, 0%, 10%, -11, -1%, -3%, -10%, 2%
C=CCSc1n[nH]c(-c2ccc(OC)cc2)n1
 : 1%, 4%, 18%, -5, 3%, -1%, 31%, 8%
c1ccc2c(c1)CCCN2Cc1nnc2n1CCCCC2
 : -1%, 2%, 5%[57.1 µM], 8, 6%[57.1 µM], 3%, 6%, 0%
Cc1ccc(NC(=O)Nc2nnc(N(C)Cc3ccccc3)s2)c(C)c1
 : -7%, 0%, 5%, 4, -3%, 2%, -2%, -4%
CCCN1CCN(C(=O)CCCNC(=O)Cn2cnc3sc(C)c(C)c3c2=O)CC1
 : 1%, 1%, -12%, -2, 1%, x, -8%, -5%
O=C(Cc1c(Cl)cccc1Cl)OCC(=O)N1CCOCC1
 : -3%, -1%, 10%, -11, 3%, 5%, -47%, -2%
CC1=C(C(=O)Nc2cccnc2)C(c2cccnc2)n2ncnc2N1 (stereo not given)
 : 1%, -3%, -2%, -4, -6%, -3%, 6%, -2%
CC1(c2ccccc2Br)NC(=O)N(CC(=O)Nc2ccc(S(N)(=O)=O)cc2)C1=O (stereo not given)
 : -2%, -11%, 15%, -4, 1%, 1%, 19%, -2%
COc1cc(NC(=O)C(CC(C)C)N2Cc3ccccc3C2=O)cc(OC)c1 (stereo not given)
 : 0%, -13%, 3%, -4, -7%, 9%, 6%, -4%
CC(C)CC(C(=O)NCCc1ccccc1)N1Cc2ccccc2C1=O (stereo not given)
 : 3%, -6%, 1%, 0, -8%, 11%, 25%, 0%
CN(C)CCN(Cc1ccco1)S(=O)(=O)c1cc2c(cc1Cl)NC(=O)CO2
 : 3%, -15%, 15%[57.1 µM], -1, -4%[57.1 µM], 3%, -2%, -4%
N#Cc1ccc(-c2cccnc2)nc1SCc1ccc(Cl)c(Cl)c1
 : -4%, 7%, 15%, -3, 20%, 10%, -24%, -6%

Next part.
Every second line gives: Vif-A3G inh, mIDH1 inhibitor, rTrxR1 inhibitor, LDHA inh, TrxR1 substrate, Vif-APOBEC3F blk, RGS4 inhibitor, GRP78 ERSR act
CC1CN(C2CC(C)(C)NC(C)(C)C2)CCC1=O (stereo not given)
 : 0%, 5%, 12%, -1, 9%, -9%, -15%, -3%
CCOC(=O)c1ccc(-c2ccc(/C=C(\C#N)C(=O)Nc3ccc(C)cc3)o2)cc1
 : 2%, 21%, -10%[57.1 µM], -11, -14%[57.1 µM], 0%, 1%, -2%
Cn1nc(C(F)(F)F)cc1-c1ccc(/C=C(\C#N)C(=O)c2cccc(C(F)(F)F)c2)s1
 : -6%, -3%, 10%[11.4 µM], -9, 13%[57.1 µM], u, -9%, 2%
CC1CN(Cc2nc3c(c(=O)n(C)c(=O)n3C)n2CCc2ccccc2)CC(C)O1 (stereo not given)
 : 0%, 5%, 14%[57.1 µM], -5, 5%[57.1 µM], 4%, -22%, 1%
N#CC1(c2ccc(NC(=O)c3ccccc3F)cc2)CCCC1
 : 1%, 5%, 5%, 4, -5%, 0%, 8%, 0%
COc1ccc(C2C(C(=O)Nc3cccnc3)=C(C)Nc3nc(-c4ccccc4)nn32)cc1OC (stereo not given)
 : -2%, -24%, 16%, -2, -5%, 2%, 6%, -2%
COc1ccccc1CCNC(=O)C1CCN(c2nc3ccccc3nc2C(F)(F)F)CC1
 : 7%, 3%, 19%[57.1 µM], 0, 3%[57.1 µM], 5%, -26%, -3%
Cc1nc2ccc(NC(=O)/C=C/C(=O)O)cc2nc1C
 : -1%, 5%, 11%[57.1 µM], 18, 40%, 7%, -39%, 8%
N#CC(CCc1ccc([N+](=O)[O-])cc1)(CCc1ccc([N+](=O)[O-])cc1)C(N)=O
 : -1%, -3%, 7%[2.29 µM], 17, 4%[57.1 µM], -1%, 0%, -2%
O=C(Nc1nc2n(n1)C(c1ccc(F)cc1)C=C(c1ccccc1)N2)c1ccc(Cl)cc1 (stereo not given)
 : -3%, -9%, -30%, -6, -2%, -1%, -2%, 4%
Cc1noc(C)c1S(=O)(=O)Nc1cccc(C(F)(F)F)c1
 : 4%, -5%, 26%, 0, 2%, 2%, -1%, -5%
O=[N+]([O-])c1cc(CN2CCN(c3cccc(C(F)(F)F)c3)CC2)c2cccnc2c1O
 : 6%, -8%, -10%[57.1 µM], 16, -7%[57.1 µM], u, -10%, -8%
CSCC(C)N1CCC(n2nccc2NC(=O)CCCc2ccccc2)CC1 (stereo not given)
 : 1%, 6%, 15%, 0, 2%, u, -9%, -3%
Cc1cc(C)c(S(=O)(=O)Nc2cccc(-n3cnnn3)c2)c(C)c1
 : -5%, 9%, 17%, -7, -3%, -4%, 3%, -9%
Cc1ccc2nc3sc(C(=O)N4CCCc5ccccc54)c(N)c3cc2c1
 : u, 2%, 11%[57.1 µM], -10, -3%, u, -17%, 0%

Some of these compounds in order of length of the SMILES, high to low:
Every second line gives: Vif-A3G inh, mIDH1 inhibitor, rTrxR1 inhibitor, LDHA inh, TrxR1 substrate, Vif-APOBEC3F blk, RGS4 inhibitor, GRP78 ERSR act
COc1ccc(C2C(C(=O)Nc3cccnc3)=C(C)Nc3nc(-c4ccccc4)nn32)cc1OC (stereo not given)
 : -2%, -24%, 16%, -2, -5%, 2%, 6%, -2%
O=C(Nc1nc2n(n1)C(c1ccc(F)cc1)C=C(c1ccccc1)N2)c1ccc(Cl)cc1 (stereo not given)
 : -3%, -9%, -30%, -6, -2%, -1%, -2%, 4%
CC1CN(Cc2nc3c(c(=O)n(C)c(=O)n3C)n2CCc2ccccc2)CC(C)O1 (stereo not given)
 : 0%, 5%, 14%[57.1 µM], -5, 5%[57.1 µM], 4%, -22%, 1%
COc1ccccc1CCNC(=O)C1CCN(c2nc3ccccc3nc2C(F)(F)F)CC1
 : 7%, 3%, 19%[57.1 µM], 0, 3%[57.1 µM], 5%, -26%, -3%
Cc1ccc2nc3sc(C(=O)N4CCCc5ccccc54)c(N)c3cc2c1
 : u, 2%, 11%[57.1 µM], -10, -3%, u, -17%, 0%
Cc1noc(C)c1S(=O)(=O)Nc1cccc(C(F)(F)F)c1
 : 4%, -5%, 26%, 0, 2%, 2%, -1%, -5%
Cc1nc2ccc(NC(=O)/C=C/C(=O)O)cc2nc1C
 : -1%, 5%, 11%[57.1 µM], 18, 40%, 7%, -39%, 8%

Remaining list, next part
Every second line gives: Vif-A3G inh, mIDH1 inhibitor, rTrxR1 inhibitor, LDHA inh, TrxR1 substrate, Vif-APOBEC3F blk, RGS4 inhibitor, GRP78 ERSR act
CC(C)(C)C1CCc2c(sc3nc(-c4cc5cc(Cl)ccc5oc4=O)[nH]c(=O)c23)C1 (stereo not given)
 : -2%, -9%, 39%[11.4 µM], -7, 7%[11.4 µM], -1%, 7%, 4%
CC(Sc1nc2ccccc2c(=O)n1CC1CCCO1)C(=O)N(C)Cc1ccccc1 (stereo not given)
 : -13%, 4%, 2%, -1, -3%, 10%, 19%, -2%
COc1ccc(/C=C/C(=O)OCC(=O)c2ccc3c(c2)NC(=O)CO3)c(OC)c1
 : -1%, -3%, 20%, -1, 7%, 3%, -1%[11.4 µM], -7%
Cc1cc2c(cc1S(=O)(=O)N(CCN(C)C)Cc1ccco1)OCC(=O)N2
 : 5%, -7%, 12%[57.1 µM], 3, -2%[57.1 µM], 10%, 7%, -3%
O=C(O)c1ccc(Cl)c(S(=O)(=O)Nc2cccc(C(=O)Nc3cccc(C(F)(F)F)c3)c2)c1
 : 1%, -3%, 23%[57.1 µM], -7, 4%[57.1 µM], 0%, 0%, -1%
Cc1nn(-c2ccc(Cl)cc2)c2[nH]c(=O)c(CNCc3ccc4c(c3)OCO4)cc12
 : -7%, -1%, 22µM*, -5, -2%, 5%, -27%[11.4 µM], -9%
Cc1nc(-c2ccc(NS(=O)(=O)c3ccccc3)cc2)cs1
 : 1%, 0%, 12%, -3, -9%, -13%, 22%, -1%
Cc1ccc(C(=O)Nc2cccc([N+](=O)[O-])c2)cc1S(=O)(=O)Nc1cccc(C(=O)O)c1
 : 0%, 1%, -3%[57.1 µM], -3, -7%[57.1 µM], 7%, u, -1%
CCOc1cc(C2C(C#N)=C(N)OC(C)=C2C(C)=O)cc(Br)c1O (stereo not given)
 : -22%, 5%, u, 2, 4%, u, -6%, -4%
O=C(Nc1cccc(N=Cc2cc(Cl)cc(Br)c2O)c1)c1ccco1
 : 0%, -6%, -16%, -2, -13%, 3%, -25%, 4%
